# 2A firefly: lowers the firefly signal of an FMDV 2A StopGo reporter | HEK cells with a luciferase reporter of 2A StopGo recoding | Potency, µM (doses to about 57.5 µM), for the others: at the top dose signal change, negative = less light | 120,000 compounds, 0.23% hits | AID 1745856; active = well fitted falling curve with a large enough effect; inconclusive = small, poorly fitted or top-dose-only effect; inactive = no such curve, though single readings can be large or run the other way; also: nearly all actives have a fitted effect of over 60% in size; overnight with compound
# StopGo RLuc: lowers the Renilla signal of an FMDV 2A StopGo reporter; HEK cells with a luciferase reporter of 2A StopGo recoding; Potency, µM (series often up to 57.5 µM), without a hit: top-dose signal change, negative = less light; 120,000 compounds, 0.32% hits; active means well fitted falling curve with a large enough effect; inconclusive means small, poorly fitted or top-dose-only effect; inactive means no such curve, though single readings can be large or run the other way; also: nearly all actives have a fitted effect of over 55% in size; overnight with compound
# Active calls of the source: *; ? = inconclusive; [ ] = remark or other dose. % is scaled to controls: 0 for no effect and ±100 for the full control effect; potency is read from the fitted curve at half-maximal effect. An excerpt; count on the stated rates, not on these rows.
SMILES	StopGo RLuc	2A firefly
CCCCc1ccc(Nc2nnc(SCc3nnc(C)o3)s2)cc1	-11.3%	125.3%[activator]
CCCCN(CC)CCNC(=O)c1nn(C)c2c1CS(=O)(=O)c1ccccc1-2	-2.2%	-10.9%
O=C(CSc1nc2ccccc2o1)NCC(=O)N1CCCC1	0.3%	35.9%[activator]
CCc1ccc(NC(=O)Cn2ccn(-c3ccc(OC)cc3)c(=O)c2=O)cc1	-13.9%	-14.4%
COc1ccc(-c2nnc(SCC(=O)Nc3cccc(C)c3)s2)cc1	-9.1%	11.7%
COc1ccccc1CNC(=O)CCn1c(=O)c2ccccc2n(CC(=O)Nc2ccc(C)cc2Cl)c1=O	-9.0%	-20.9%
COc1ccc(OC)c(NC(=O)Cn2cccc(-c3nc(-c4ccc(OC)c(OC)c4)no3)c2=O)c1	-8.9%	18.6%
CCCCn1nc(C(=O)Nc2cc(OC)c(OC)cc2C)c2ccccc2c1=O	8.0%	10.8%
CSc1ncc(C(=O)N2CCN(c3ccc(F)cc3)CC2)c(C)n1	-0.5%	-14.9%
Cc1ccc(NC(=O)Cn2c(=O)n(CCCCC(=O)NCc3ccc4c(c3)OCO4)c(=O)c3ccccc32)cc1	-10.1%	-24.9%
CCn1nc(C)c(CCN(C)C(=O)Nc2cccc(Cl)c2C)c1C	5.4%	80.9%[activator]
Cc1ccc(NS(=O)(=O)c2ccc(C(=O)O)cc2)c(Cl)c1	4.3%	2.6%
CC(C)c1cc(=O)oc2cc(OCC(=O)NCCc3ccc(F)cc3)ccc12	22.0%	2.1%
COC(=O)CCNC(=O)C(C)(C)c1ccccc1	4.3%	7.9%
CC(Oc1ccccc1Cl)C(=O)NN (stereo not given)	0.5%[1.06 µM]	5.9%

# Quoted from the listing:
# `CC(Oc1ccccc1Cl)C(=O)NN` (stereo not given) in StopGo RLuc → 0.5%[1.06 µM]
# `Cc1ccc(NC(=O)Cn2c(=O)n(CCCCC(=O)NCc3ccc4c(c3)OCO4)c(=O)c3ccccc32)cc1` in StopGo RLuc → -10.1%
# `CCCCN(CC)CCNC(=O)c1nn(C)c2c1CS(=O)(=O)c1ccccc1-2` in StopGo RLuc → -2.2%

# The list goes on:
SMILES	StopGo RLuc	2A firefly
COc1ccc(Cl)cc1NC(=O)CCCn1c(C)c2cnn(-c3ccccc3)c(=O)c2c1C	-10.0%	0.9%
Cc1ccc(OCc2nc(-c3ccccc3OCC(=O)N3CCCC(C)C3)no2)cc1 (stereo not given)	0.0%	166.5%[activator]
CN1CCc2cc(Cl)c(O)cc2[C@H]2c3ccccc3CC[C@@H]21	-5.2%	-9.7%[11.5 µM]
COc1ccc(Cl)cc1Nc1ncnc2c1c(-c1ccccc1)cn2-c1ccccc1	-0.4%	-20.9%
Cc1ccc(-n2ncc3c(NCCc4ccccc4)ncnc32)cc1Cl	-7.5%	147.7%[activator]
Cc1ccccc1OC(=O)c1nc(SCc2ccccc2F)ncc1Cl	-7.8%	0.0%
O=C(CSc1nc2ccccc2s1)Nc1cc(C(F)(F)F)ccc1Cl	-0.5%	0.2%
CCCOc1ccc(-c2ccc(C(=O)O)cc2)cc1	14.0%	233.9%[activator]
O=Cc1c[nH]c2cc(Cl)ccc12	140.1%[activator]	56.9%
COc1ccc(Nc2nc3ccccc3nc2NS(=O)(=O)c2cccc(Cl)c2)cc1OC	-13.6%	?
COCCn1c(SCc2ccc(C#N)cc2)nnc1-c1ccc(Cl)cc1	161.6%[activator]	13.5%
O=C(CN1CCN(c2ccc([N+](=O)[O-])c3cnccc23)CC1)Nc1cccc(F)c1	-0.1%	10.1%
CCOc1ccc2cc(C(=O)c3ccccc3)c(=O)oc2c1	-0.6%	0.0%
COc1ccc(CCNC(=O)CCCn2c(=O)c3ccccc3n(Cc3ccccc3)c2=O)cc1OC	5.3%	0.0%
CCCn1c2ccccc2c2cnn(CC(=O)NCCc3ccccc3)c(=O)c21	-2.9%	-9.7%
Cc1ccc2nc(C)ccc2c1	-2.9%[1.06 µM]	40.3%[activator]
O=C(Nc1ccc(-c2noc(/C=C/c3ccccc3)n2)cc1)c1ccc(Br)o1	25.2%	133.5%[activator]
O=C(CC1C=CCC1)Nc1cccc(OC2CCCC2)c1 (stereo not given)	0.0%	34.6%[activator]
CCOC(=O)c1c(C)[nH]c(C(=O)OC(C)C(N)=O)c1C (stereo not given)	21.1%	0.0%
O=C(Nc1ccc2oc(=O)ccc2c1)c1ccc(OC(F)F)cc1	0.5%	62.5%[activator]
CCCn1nc(C(=O)NCCc2ccc(S(N)(=O)=O)cc2)c2ccccc2c1=O	14.3%	18.1%
COc1ccc(-c2[nH]c(-c3cccc(OC)c3)nc2SCC(=O)Nc2ccc3c(c2)OCO3)cc1	85.0%[activator]	11.9%
Cc1cc(C(=O)NNC(=O)CCC2CCCCC2)c2ccccc2n1	13.0%[1.06 µM]	16.2%
COc1ccc(C(C)C)cc1S(=O)(=O)NCCc1c(C)[nH]c2c(Cl)cccc12	357.8%[activator]	15.2%
Cc1ccc(C(=O)OC2CCOC2=O)s1 (stereo not given)	4.9%	0.0%
CC(=O)Nc1ccc(NCc2nnc3n2CCCCC3)cc1	-4.1%	2.5%
CC(C)NC(=O)CN1CCN(C(=O)c2ccc3ccccc3n2)CC1	-6.4%	-1.1%
CCOCCOc1nc2c(c(=O)n(C)c(=O)n2C)n1Cc1ccc(C)cc1	-6.3%	2.7%
O=C1Nc2ccccc2C1Cc1ccc(Br)cc1 (stereo not given)	-0.2%	30.9%
Cc1cc(C)c(NC(=O)CCCc2cccs2)c(Cl)c1	-6.5%	25.5%

# Part of the list above in order of molar mass, largest number first:
SMILES	StopGo RLuc	2A firefly
COc1ccc(CCNC(=O)CCCn2c(=O)c3ccccc3n(Cc3ccccc3)c2=O)cc1OC	5.3%	0.0%
COc1ccc(-c2[nH]c(-c3cccc(OC)c3)nc2SCC(=O)Nc2ccc3c(c2)OCO3)cc1	85.0%[activator]	11.9%
COc1ccc(Nc2nc3ccccc3nc2NS(=O)(=O)c2cccc(Cl)c2)cc1OC	-13.6%	?
COc1ccc(C(C)C)cc1S(=O)(=O)NCCc1c(C)[nH]c2c(Cl)cccc12	357.8%[activator]	15.2%
CCCn1nc(C(=O)NCCc2ccc(S(N)(=O)=O)cc2)c2ccccc2c1=O	14.3%	18.1%
O=C(CSc1nc2ccccc2s1)Nc1cc(C(F)(F)F)ccc1Cl	-0.5%	0.2%
Cc1ccccc1OC(=O)c1nc(SCc2ccccc2F)ncc1Cl	-7.8%	0.0%
CCCn1c2ccccc2c2cnn(CC(=O)NCCc3ccccc3)c(=O)c21	-2.9%	-9.7%
COCCn1c(SCc2ccc(C#N)cc2)nnc1-c1ccc(Cl)cc1	161.6%[activator]	13.5%
CCOCCOc1nc2c(c(=O)n(C)c(=O)n2C)n1Cc1ccc(C)cc1	-6.3%	2.7%
Cc1ccc(-n2ncc3c(NCCc4ccccc4)ncnc32)cc1Cl	-7.5%	147.7%[activator]
CC(C)NC(=O)CN1CCN(C(=O)c2ccc3ccccc3n2)CC1	-6.4%	-1.1%
Cc1cc(C(=O)NNC(=O)CCC2CCCCC2)c2ccccc2n1	13.0%[1.06 µM]	16.2%
O=C(Nc1ccc2oc(=O)ccc2c1)c1ccc(OC(F)F)cc1	0.5%	62.5%[activator]
Cc1cc(C)c(NC(=O)CCCc2cccs2)c(Cl)c1	-6.5%	25.5%
O=C1Nc2ccccc2C1Cc1ccc(Br)cc1 (stereo not given)	-0.2%	30.9%
CC(=O)Nc1ccc(NCc2nnc3n2CCCCC3)cc1	-4.1%	2.5%
CCOc1ccc2cc(C(=O)c3ccccc3)c(=O)oc2c1	-0.6%	0.0%
O=C(CC1C=CCC1)Nc1cccc(OC2CCCC2)c1 (stereo not given)	0.0%	34.6%[activator]
CCOC(=O)c1c(C)[nH]c(C(=O)OC(C)C(N)=O)c1C (stereo not given)	21.1%	0.0%
CCCOc1ccc(-c2ccc(C(=O)O)cc2)cc1	14.0%	233.9%[activator]
Cc1ccc(C(=O)OC2CCOC2=O)s1 (stereo not given)	4.9%	0.0%
Cc1ccc2nc(C)ccc2c1	-2.9%[1.06 µM]	40.3%[activator]

# (next part)
SMILES	StopGo RLuc	2A firefly
NNc1cc(Cl)c(Cl)cc1Cl	0.3%	12.9%
CCNC(=S)N/N=C(/C)c1ccc(Cl)c(Cl)c1	-7.2%	12.2%
COc1ccc(CNC(=O)CN2C(=O)C(C)=C(c3ccc(C)c(C)c3)S2(=O)=O)c(OC)c1	8.1%	-2.9%
Cc1cc(C(=O)NCCC(c2ccccc2)c2ccccc2)c2ccccc2n1	3.3%	-1.9%
Cc1cccc(NC(=O)CCl)c1	31.6µM*	?
CN=c1scc(-c2cccs2)n1/N=C/c1cccs1	?	?
COc1ccc(/C=C(/C#N)c2nc(-c3ccc(-c4ccccc4)cc3)cs2)cc1	-11.7%	-9.3%
Cn1c(SCC(=O)N2CCCCC2)nc2ccsc2c1=O	-0.2%	35.5%[activator]
CCN(CC)S(=O)(=O)c1ccc2c(c1)N(CC(=O)NCc1ccccc1)C(=O)C1CCCCN21 (stereo not given)	0.0%	-15.5%
CCC(=O)Nc1ccc(Cl)cc1C	-4.8%	-4.9%
CNCc1ccccc1	5.0%	15.0%[11.5 µM]
Cc1ccccc1NC(=O)c1c(NC(=O)c2ccncc2)sc2c1CCC(C(C)(C)C)C2 (stereo not given)	-4.0%	-12.6%
Cc1ccc(S(=O)(=O)c2cn(C)c3cc(N4CCN(c5ccccc5)CC4)c(F)cc3c2=O)cc1	-6.7%	-13.7%
CCc1nn2c(=O)cc(CNc3cc4c(cc3Cl)OCCCO4)nc2s1	11.7%	-10.7%
CNC(=O)C1CCC(Cn2c(=O)c3sccc3n(CC(=O)Nc3ccc(C)cc3C)c2=O)CC1 (stereo not given)	-12.4%	-3.2%
Cc1ccc(C(c2sc3nc(-c4ccco4)nn3c2O)N2CCCC2)cc1 (stereo not given)	-27.7%	6.8%
CCc1ccc(CCC(=O)N2CCC(C(=O)Nc3cc(C)ccn3)CC2)cc1	-14.6%	-8.3%
Nc1c(Cl)cc(N=Cc2ccc(Cl)cc2Cl)cc1Cl	4.3%	11.4%
CCCC(=O)Nc1nc(-c2ccc3c(c2)CCO3)cs1	-25.3%	86.7%[activator]
Cc1ccc(C)c(CSc2nc3ncccc3[nH]2)c1	-2.8%	-8.4%
Cc1ccc(NC(=O)CC(C)S(=O)(=O)c2ccc3c(c2)NC(=O)CO3)cc1C (stereo not given)	-5.2%	4.7%
CCOc1ccc(C(=O)Nc2ccc3oc(C)nc3c2)cc1OC	-8.1%	134.3%[activator]
COC(=O)c1cccc(NS(=O)(=O)c2c(C)nn(C)c2C)c1	176.1%[activator]	5.1%
CC1=C(C(=O)NC2CCCCCC2)C2(CCCCCC2)OC1=O	17.9%	0.0%
Cc1cc(NC(=O)C(C)C)cc(-c2nc3ccccc3o2)c1O	3.1%	-1.7%
Cc1cccc(N2CCN(C(=O)Cn3c(C)c4cnn(-c5ccccc5)c(=O)c4c3C)CC2)c1C	?	?
Cc1cccc(S(=O)(=O)Nc2nc3ccccc3nc2Nc2cccc(F)c2)c1	-2.3%	1.7%
CC(NC(=O)c1cccc(CS(C)(=O)=O)c1)c1ccccc1 (stereo not given)	1.6%	2.3%
Cc1ccc(-n2ncc(C(=O)N3CCN(c4ccccc4F)CC3)c2C2CCN(C(=O)OC(C)(C)C)CC2)cc1C	-8.5%	-14.0%
COC(=O)C1=C(CS(=O)(=O)c2ccc(OC)cc2)NC(=O)NC1c1cccc(Cl)c1 (stereo not given)	-4.6%	-8.7%

# A draw from above in order of heavy-atom count, rising:
SMILES	StopGo RLuc	2A firefly
COC(=O)c1cccc(NS(=O)(=O)c2c(C)nn(C)c2C)c1	176.1%[activator]	5.1%
Cc1ccc(C(c2sc3nc(-c4ccco4)nn3c2O)N2CCCC2)cc1 (stereo not given)	-27.7%	6.8%
Cc1ccc(NC(=O)CC(C)S(=O)(=O)c2ccc3c(c2)NC(=O)CO3)cc1C (stereo not given)	-5.2%	4.7%

# (continued)
SMILES	StopGo RLuc	2A firefly
Cc1ccc2c(CN3CCN(C(=O)c4ccco4)CC3)cc(=O)oc2c1	-4.3%	-0.1%
CCOc1ccc(NC(=O)N2c3ccccc3Sc3ccccc32)cc1	5.6%	-5.9%
COc1ccc(Cn2c(=O)[nH]c3cc(C(=O)N4CCN(c5ccccc5)CC4)ccc3c2=O)cc1	-7.3%	31.1%[activator]
Fc1ccc(-c2nc3c4c(-c5ccccc5)c(-c5ccccc5)oc4ncn3n2)cc1	-11.7%	5.0%
Cc1[nH]c2ccccc2c1C(c1ccncc1)c1c(C)[nH]c2ccccc12	63.8%[activator]	92.8%[activator]
CN(C)C(=O)CN1CCN(C(C(=O)O)c2cn(C)c3cc(C(=O)O)ccc23)CC1 (stereo not given)	-3.0%	3.7%
Nn1c(SC(C(=O)N2CCOCC2)c2ccccc2)nnc1-c1ccccc1F (stereo not given)	10.0%	22.3%
NC(=O)Cc1csc(NC(=O)CCc2ncc(-c3ccccc3)o2)n1	-4.3%	18.4%
COc1ccc(N2CCN(CCCNC(=O)c3nnc(Cc4ccccc4Cl)o3)CC2)cc1	-11.3%	-10.0%
CNc1ccc(-c2nc(-c3ccco3)no2)cc1[N+](=O)[O-]	5.9%	0.0%
Cc1ccc(-c2c(C(=O)NCCc3ccccc3)oc(=O)c3ccccc23)cc1	-0.5%	-20.0%
COc1ccc(C(=O)Oc2ccc3c(=O)c(-c4ccccc4OC)c(C)oc3c2)cc1	-20.1%	6.6%
N#C/C(=C(/O)c1cccc2ccccc12)c1nc2ccccc2[nH]1	-3.3%	14.1%
